High-throughput results: PubChem, Broad Institute
FGF22 binding: binders of human FGF22 protein, primary screen, FGF22 synaptogenesis inhibitor project, biophysical, thermal shift, single point. calls only at 9.99 µM. Fibroblast growth factor 22 (Homo sapiens), Q9HCT0. actives 1.5% (n = 340,000). recombinant FGF22 thermal shift, SYPRO orange fluorescence; percent of sucrose octasulfate shift, DMSO zero;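 active = melting point raised past a set limit in the mean and every replicate; three in four hits are not shown here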
Target sequence (Q9HCT0 whole entry, looked up): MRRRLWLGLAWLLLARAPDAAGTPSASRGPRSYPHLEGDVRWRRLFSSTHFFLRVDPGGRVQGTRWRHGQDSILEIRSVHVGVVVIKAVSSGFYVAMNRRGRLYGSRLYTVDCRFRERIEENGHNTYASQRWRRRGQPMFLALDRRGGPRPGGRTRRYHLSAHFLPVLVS
AF4-AF9 inh: inhibitors of AF4 peptide binding to AF9, primary screen, biochemical, AlphaScreen, biotin-AF4 peptide, FLAG-AF9, single point. AID 651704, 2012. actives 0.47% (n = 350,000). Protein AF-9 (Homo sapiens), P42568. inhibition, % at 10 µM;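 active = every replicate reaching a set inhibition limit, whatever the replicate mean, cut at about 25% in these data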;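 also: 0% = plate neutral control median and 100% = total signal loss; the record names both 10 and 1 µM as test concentration; the first replicate is given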
Target sequence (P42568 whole entry, looked up): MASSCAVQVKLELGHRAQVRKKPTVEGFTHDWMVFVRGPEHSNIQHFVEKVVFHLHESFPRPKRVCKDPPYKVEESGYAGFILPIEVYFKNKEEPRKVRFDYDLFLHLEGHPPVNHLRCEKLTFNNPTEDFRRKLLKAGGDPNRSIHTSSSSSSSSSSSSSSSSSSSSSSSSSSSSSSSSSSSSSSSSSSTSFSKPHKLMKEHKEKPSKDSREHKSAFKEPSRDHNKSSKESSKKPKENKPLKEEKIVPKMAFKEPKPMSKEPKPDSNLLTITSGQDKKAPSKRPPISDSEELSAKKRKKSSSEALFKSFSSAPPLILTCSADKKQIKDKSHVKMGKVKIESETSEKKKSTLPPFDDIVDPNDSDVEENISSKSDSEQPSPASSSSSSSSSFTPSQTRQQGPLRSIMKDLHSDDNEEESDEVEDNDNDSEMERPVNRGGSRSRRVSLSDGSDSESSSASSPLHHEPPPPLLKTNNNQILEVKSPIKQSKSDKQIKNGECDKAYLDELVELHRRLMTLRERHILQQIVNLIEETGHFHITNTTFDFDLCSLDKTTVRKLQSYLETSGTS
Ecoli rRNA inh: reduced GFP signal of wild-type E. coli, primary screen, bacterial rRNA inhibitor project, GFP/RFP fluorescence, OD600, single point | actives 1.6% (n = 350,000) | E. coli WT GFP vs humanized-ribosome RFP mutants, 24 h; stronger effect = lower value; DMSO median 0, no signal -100 | AID 720706, 2013 | GFP signal change (wild-type ribosome), % (no concentration beside the values);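 active = significant combined selectivity score with lowered wild-type GFP, culture density cut under 30%, mutant RFP and density less affected; inactive = any of these conditions unmet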; also: one replicate is shown; some compounds called inactive have numbers as strong as hits
Ecoli rRNA inh OD600: further read-out of Ecoli rRNA inh, marked with its call; OD600 change, %; measured here: OD600 growth;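 optical density of the mix in the first replicate; 0 = DMSO median and -100 = no signal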
Ecoli rRNA inh RFP: also measured in Ecoli rRNA inh; calls as there; RFP signal change, %; measured here: RFP humanized mutant strains;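 first replicate; 0 = DMSO median and -100 = no signal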
* hit, by the source's call; i = inactive. A portion of the library, so the mix of outcomes need not match the whole.

SMILES | FGF22 binding | AF4-AF9 inh | Ecoli rRNA inh | Ecoli rRNA inh OD600 | Ecoli rRNA inh RFP
C[C@H](CO)N1C[C@H](C)[C@H](CN(C)Cc2ccc(Cl)c(Cl)c2)Oc2c(NC(=O)c3ccncc3)cccc2C1=O | i | 0.1 | -1 | -6 | -1.6
C[C@H](NC(=O)C[C@H]1C=C[C@H](NC(=O)C2CCOCC2)[C@@H](CO)O1)c1ccccc1 | i | -1.5 | -2 | -3 | 0.7
N#Cc1cnc(=S)n(-c2cc(C(F)(F)F)cc(C(F)(F)F)c2)c1N | i | -1.1 | -21 | -35 | -8.1
CN1CCN(C(=O)C[C@@H]2CC[C@@H]3[C@H](COc4ccc(NC(=O)C5CCCCC5)cc4C(=O)N3C)O2)CC1 | i | -13 | -1 | 3 | -5.8
COc1cccc(-c2cnc3c(c2)C(=O)N([C@H](C)CO)C[C@H](C)[C@H](CN(C)C(=O)Nc2cccc4ccccc24)O3)c1 | i | 3.9 | -4 | -17 | 11
CCOC(=O)c1noc2c1CCC2 | i | -0.2 | 30 | 25 | 4.0
CCCNC(=O)C[C@H]1CC[C@@H]2[C@@H](COc3ccc(NC(=O)c4ccc(Cl)cc4)cc3C(=O)N2C)O1 | i | -3.5 | -10 | -8 | -3.1
CC(C)NC(=O)N(C)C[C@@H]1Oc2ccc(NC(=O)Nc3ccccc3)cc2C(=O)N([C@@H](C)CO)C[C@@H]1C | i | -2.3 | 1 | 4 | 1.1
O=C(NNC(=O)C1CCC1)c1ccc(F)cc1 | i | 0.6 | 7 | 15 | 1.6
C[C@@H]1CCCCO[C@H](CN(C)S(=O)(=O)c2ccc(F)cc2)[C@@H](C)CN([C@H](C)CO)C(=O)c2cc(NC(=O)Nc3ccc4c(c3)OCO4)ccc2O1 | i | 0.7 | 0 | 1 | -1.1
Cc1noc(C)c1NC(=O)Nc1ccc2c(c1)CC(=O)N([C@H](C)CO)C[C@H](C)[C@H](CN(C)S(=O)(=O)c1c(C)noc1C)O2 | i | -1.3 | 2 | 9 | -0.3
O=C(CC1CC1)Nc1ccc2c(c1)[C@@H]1C[C@H](CC(=O)N3CCCCC3)O[C@@H](CO)[C@@H]1O2 | i | 0.1 | 9 | 15 | 1.2
CCC(=O)N1CC2(C1)[C@H](c1ccc(-c3ccc(F)cc3)cc1)[C@@H](CO)N2C(=O)CC | i | -1.9 | -3 | -1 | 2.2
CCC/C=C/c1ccc(CN2C(C)C(=O)N(Cc3cn(CCC4OCCCO4)nn3)CCS2(=O)=O)cc1 (centres undefined) | i | 3.6 | -4 | -10 | 3.2
C[C@@H]1CN([C@@H](C)CO)C(=O)c2cc(NS(=O)(=O)c3ccccc3)ccc2O[C@@H]1CN(C)Cc1ccc(Cl)c(Cl)c1 | i | 4.6 | -6 | -38 | 18
COCC(=O)Nc1ccc2c(c1)C(=O)N(C)C[C@@H](OC)[C@@H](C)CN(CC1CCCCC1)[C@H](C)CO2 | i | 0.2 | -1 | -1 | -0.3
CCCN(CC1CC1)c1cc2c(c3c1ccn3C)C1CCC2C1 (centres undefined) | i | 48* | -8 | -5 | 3.2
C/C=C/c1ccc2c(c1)O[C@@H](CN(C)C(=O)CN(C)C)[C@@H](C)CN([C@@H](C)CO)S2(=O)=O | i | -1.5 | 3 | -5 | -1.1
CCCN(C)C[C@@H]1Oc2cc(C#Cc3cccc(F)c3)ccc2S(=O)(=O)N([C@H](C)CO)C[C@@H]1C | i | 4.3 | 2 | 0 | 1.7
Cc1ccc(S(=O)(=O)Nc2ccc3c(c2)C(=O)N([C@@H](C)CO)C[C@@H](C)[C@H](CN(C)S(=O)(=O)c2ccc(C)cc2)O3)cc1 | i | -0.6 | -3 | -12 | 1.9
O=C(C[C@@H]1CC[C@@H](NC(=O)Nc2cc(F)ccc2F)[C@@H](CO)O1)NCc1ccccn1 | i | 0.1 | -2 | 2 | -1.1
C[C@@H](O)C#Cc1ccc([C@@H]2[C@H]3CN(C(=O)c4ccncc4)CCCCN3[C@H]2CO)cc1 | i | -0.7 | 2 | 7 | -1.0
CCN1C(=O)C(=CC=CN(C)c2ccccc2)SC1=S | i | -1.7 | 12 | 12 | 48
COC(=O)C[C@@H]1CC[C@H]2[C@H](COc3ccc(NC(=O)NC(C)C)cc3C(=O)N2C)O1 | i | -0.7 | 3 | -1 | 0.6

Exported with each value named: four of the compounds above
SMILES: CCCN(CC1CC1)c1cc2c(c3c1ccn3C)C1CCC2C1 (centres undefined)
  FGF22 binding: i
  AF4-AF9 inh: 48*
  Ecoli rRNA inh: -8
  Ecoli rRNA inh OD600: -5
  Ecoli rRNA inh RFP: 3.2

SMILES: C/C=C/c1ccc2c(c1)O[C@@H](CN(C)C(=O)CN(C)C)[C@@H](C)CN([C@@H](C)CO)S2(=O)=O
  FGF22 binding: i
  AF4-AF9 inh: -1.5
  Ecoli rRNA inh: 3
  Ecoli rRNA inh OD600: -5
  Ecoli rRNA inh RFP: -1.1

SMILES: CCCN(C)C[C@@H]1Oc2cc(C#Cc3cccc(F)c3)ccc2S(=O)(=O)N([C@H](C)CO)C[C@@H]1C
  FGF22 binding: i
  AF4-AF9 inh: 4.3
  Ecoli rRNA inh: 2
  Ecoli rRNA inh OD600: 0
  Ecoli rRNA inh RFP: 1.7

SMILES: Cc1ccc(S(=O)(=O)Nc2ccc3c(c2)C(=O)N([C@@H](C)CO)C[C@@H](C)[C@H](CN(C)S(=O)(=O)c2ccc(C)cc2)O3)cc1
  FGF22 binding: i
  AF4-AF9 inh: -0.6
  Ecoli rRNA inh: -3
  Ecoli rRNA inh OD600: -12
  Ecoli rRNA inh RFP: 1.9

Other compounds.
SMILES | FGF22 binding | AF4-AF9 inh | Ecoli rRNA inh | Ecoli rRNA inh OD600 | Ecoli rRNA inh RFP
COCC(=O)N(C)C[C@H]1Oc2ncc(C#Cc3ccc(F)cc3)cc2C(=O)N([C@@H](C)CO)C[C@H]1C | i | -2.5 | 1 | -4 | 0.4
CCC(=O)N1[C@H](CN(C(C)C)S(C)(=O)=O)[C@@H](c2ccccc2)[C@@H]1CO | i | -1.6 | 0 | 3 | 2.0
COc1ccc(NC(=O)N(C)C[C@H]2Oc3c(NC(=O)Nc4ccccc4)cccc3C(=O)N([C@H](C)CO)C[C@H]2C)cc1 | i | 2.6 | 5 | 4 | -0.3
Cc1noc(C)c1NC(=O)N(C)C[C@H]1Oc2ncc(C#CC3CCCCC3)cc2C(=O)N([C@@H](C)CO)C[C@@H]1C | i | -2.0 | 0 | 5 | -2.1
COc1ccc(C)cc1NC(=O)COC(=O)c1c(-c2ccccc2)noc1C | i | 1.6 | -9 | -1 | 0.7
C[C@H](O)C#Cc1ccc2c(c1)O[C@@H](CN(C)C(=O)c1ccccc1)[C@H](C)CN([C@H](C)CO)S2(=O)=O | i | -0.8 | -1 | -5 | -2.4
CCOC(=O)C1=CCC(c2ccc(C)cc2)N(S(=O)(=O)c2ccc(C)cc2)C1 (centres undefined) | i | -3.9 | 2 | 7 | 0.1
CC(C)C#Cc1ccc([C@H]2[C@@H](CO)N3CCCCN(C(=O)c4ccc5c(c4)OCO5)C[C@@H]23)cc1 | i | 4.6 | -22 | -63 | 1.6
C[C@@H]1CN([C@@H](C)CO)C(=O)c2cc(NC(=O)Cn3cnnn3)ccc2O[C@@H]1CN(C)S(=O)(=O)c1ccc(Cl)cc1 | i | -13 | 4 | 10 | -0.7
COc1cccc(CNC(=O)C[C@H]2CC[C@H](NS(=O)(=O)c3ccccc3OC)[C@@H](CO)O2)c1 | i | -0.9 | -1 | 1 | -0.7
COc1ccc(CN(C)C[C@H]2OCCCC[C@@H](C)Oc3ccc(NC(=O)NC4CCCCC4)cc3C(=O)N([C@@H](C)CO)C[C@@H]2C)cc1 | i | 5.3 | 3 | -14 | 18
C[C@@H]1CN([C@H](C)CO)C(=O)c2cc(C#Cc3cccc(F)c3)cnc2O[C@H]1CN(C)C(=O)C1CCC1 | i | -0.8 | 2 | -8 | 16
Cc1noc(C)c1NC(=O)N(C)C[C@@H]1Oc2ccc(NS(=O)(=O)c3ccccc3)cc2C(=O)N([C@H](C)CO)C[C@H]1C | i | -4.2 | 4 | 8 | -1.8
C[C@@H]1CCCCO[C@@H](CN(C)CC2CC2)[C@@H](C)CN([C@H](C)CO)C(=O)c2cc(NS(=O)(=O)c3ccc(Cl)cc3)ccc2O1 | i | 4.6 | 9 | 9 | -0.5
C[C@@H]1CN([C@H](C)CO)S(=O)(=O)c2ccc(-c3ccncc3)cc2O[C@@H]1CN(C)C(=O)Nc1ccc(F)cc1 | i | -0.1 | -7 | -8 | -1.2
CO[C@H]1CN(C)C(=O)c2ccc(NC(=O)c3cccc(Oc4ccccc4)c3)cc2OC[C@@H](C)NC[C@H]1C | i | 9.3 | -9 | -8 | 11
CCc1csc(N2[C@H](C#N)[C@H](c3ccc(C4=CCCC4)cc3)[C@@H]2CO)n1 | i | -0.6 | -6 | -23 | 28
CC(=O)Nc1cccc(-c2ccnc3c2CC(C(=O)NCc2ccco2)O3)c1 (centres undefined) | i | 2.3 | 4 | 6 | 6.6
CC(C)(C(=O)N1CCC1(C)C(=O)NS(=O)(=O)c1ccc(C#N)cc1)c1ccccc1 (centres undefined) | i | -4.2 | 3 | 4 | -3.4
CCOC(=O)[C@]12CCC=C1N(Cc1cccc3ccccc13)C(=O)[C@H](CC(=O)N1CCOCC1)C2 | i | 3.3 | -4 | -13 | 1.0
C[C@@H]1CN([C@@H](C)CO)C(=O)c2cc(C#Cc3cccc(F)c3)cnc2O[C@H]1CN(C)CC1CCCC1 | i | 8.0 | 3 | 5 | 8.0
C[C@H]1CN([C@@H](C)CO)C(=O)c2cc(-c3ccccc3F)cnc2O[C@@H]1CN(C)C(=O)C1CC1 | i | 2.4 | 4 | 2 | -2.0
COc1cccc(-c2ccc3n(c2=O)C[C@H]2[C@H](CO)[C@@H](C(=O)NC4CCC4)N[C@@H]32)c1 | i | -5.7 | 3 | 3 | -0.6
CC1(C(=O)Nc2cccc3ncccc23)CCN1C(=O)CCc1ccccc1 (centres undefined) | i | -1.4 | -9 | -2 | -2.8
COc1ccc2c3c([nH]c2c1)[C@H](CO)N(C(C)=O)CC31CCN(C(=O)c2cccc(F)c2)CC1 | i | -9.2 | 0 | 5 | 1.9
O=C(CC1CC1)N[C@@H]1CC[C@H](CCNS(=O)(=O)c2ccc(Cl)cc2)O[C@@H]1CO | i | -2.1 | 0 | -2 | -1.2
C[C@@H]1CCCCO[C@@H](CN(C)Cc2ccncc2)[C@H](C)CN([C@@H](C)CO)C(=O)c2cc(NC(=O)Nc3ccc(C(F)(F)F)cc3)ccc2O1 | i | -2.6 | 0 | -11 | 2.4
COCCN1C(=O)COc2ccccc2C1C(=O)NC1CCCC1 (centres undefined) | i | 1.5 | 14 | 9 | 2.7
C[C@@H]1CN([C@@H](C)CO)C(=O)c2cc(-c3ccncc3)cnc2O[C@H]1CN(C)Cc1cccnc1 | i | -4.4 | 2 | -1 | 1.1
COc1cccc(-c2ccc3c(c2)O[C@@H](CN(C)C(=O)C2CCOCC2)[C@H](C)CN([C@@H](C)CO)S3(=O)=O)c1 | i | 0.9 | 0 | -10 | -1.3
CC(=O)Nc1cccc(-c2ccnc3c2CC(C)(C(=O)Nc2ccccc2)O3)c1 (centres undefined) | i | -0.1 | -5 | -5 | -1.7
CCC(=O)N1CCC(C)(C(=O)Nc2ccc(OC)c(OC)c2)C1 (centres undefined) | i | 0.6 | 7 | 14 | -0.6
COc1cccc(CN2CC3(CN(Cc4ccccn4)C3)c3c([nH]c4cc(OC)ccc34)[C@@H]2CO)c1 | i | 2.2 | 1 | 9 | 6.0
COc1ccc(-c2cnc3c(c2)C(=O)N([C@@H](C)CO)C[C@H](C)[C@@H](CN(C)S(C)(=O)=O)O3)cc1 | i | -1.3 | 3 | 10 | -0.8
O=C(NCC1CCCN1S(=O)(=O)c1cccs1)C(=O)Nc1ccccc1F (centres undefined) | i | -2.6 | -3 | -11 | -1.0
C[C@@H]1CCCCO[C@@H](CN(C)C(=O)c2ccncc2)[C@H](C)CN([C@@H](C)CO)C(=O)c2cc(NS(=O)(=O)c3ccc(Cl)cc3)ccc2O1 | i | -3.7 | -1 | -4 | 0.4
C[C@H]1CN([C@@H](C)CO)C(=O)c2cc(C3=CCCC3)cnc2O[C@@H]1CN(C)C(=O)c1cccnc1 | i | -1.3 | 2 | 15 | -0.8
C[C@@H]1CCCCO[C@H](CN(C)S(=O)(=O)c2ccc(Cl)cc2)[C@H](C)CN([C@H](C)CO)C(=O)c2cc(NS(=O)(=O)c3cccs3)ccc2O1 | i | 1.5 | 1 | -1 | -1.6
